# Source: PubChem BioAssay
# rRNA inh HTS – selective bacterial rRNA inhibition in E. coli | 350,000 compounds, 1.6% hits | E. coli WT GFP vs humanized-ribosome RFP mutants, fluorescence, 24 h; active compounds read low; DMSO median 0, no signal -100 | GFP signal change (wild-type ribosome), % (test concentration not listed);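 active = significant combined selectivity score with lowered wild-type GFP, culture density cut under 30%, mutant RFP and density less affected; inactive = any of these conditions unmet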; note: one replicate is shown; some compounds called inactive have numbers as strong as hits
# Beta cell apopt – beta cell apoptosis inhibition | INS-1E cytokine-induced death, ATP luminescence, 48 h; percent of positive-control rescue, neutral wells zero | protection from apoptosis, % (no concentration beside the values) | 300,000 compounds, 0.8% hits | AID 435005;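 active = all replicates at 75% or more, or half of them and the mean; inconclusive = half reach 75% but not the mean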;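 note: 0% = cytokine-treated negative control wells and 100% = positive control rescue; higher means more ATP so stronger rescue from cytokine killing; wells of about 40 µL received 100 nL stock; the first replicate is given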
# RanGTP-Imp inh – disruptors of Ran-importin-beta complex formation – biochemical, FRET, CFP-Ran, YFP-importin-beta, homogeneous, primary screen. cell-free CFP-Ran/YFP-importin-beta FRET ratio. inhibition, % (test concentration not listed). 300,000 compounds, 1.1% hits. AID 2216;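 active = most replicates above 15%; inconclusive = exactly half above 15%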;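 note: 0% = DMSO wells and 100% = Ran loaded with GDP instead of GTP; wells of about 40 µL received 100 nL stock; the first replicate is given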
# AF4-AF9 inh – blocks AF4 peptide binding to human AF9; P42568; AlphaScreen, biotin-AF4 peptide binding to FLAG-AF9; inhibition, % at 10 µM; 350,000 compounds, 0.47% hits;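 active = every replicate reaching a set inhibition limit, whatever the replicate mean, cut at about 25% in these data; inconclusive = mean inhibition reaches that limit but some replicates miss it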;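 note: 0% = plate neutral control median and 100% = total signal loss; the record names both 10 and 1 µM as test concentration; the first replicate is given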
# Target sequence (P42568 whole entry, looked up): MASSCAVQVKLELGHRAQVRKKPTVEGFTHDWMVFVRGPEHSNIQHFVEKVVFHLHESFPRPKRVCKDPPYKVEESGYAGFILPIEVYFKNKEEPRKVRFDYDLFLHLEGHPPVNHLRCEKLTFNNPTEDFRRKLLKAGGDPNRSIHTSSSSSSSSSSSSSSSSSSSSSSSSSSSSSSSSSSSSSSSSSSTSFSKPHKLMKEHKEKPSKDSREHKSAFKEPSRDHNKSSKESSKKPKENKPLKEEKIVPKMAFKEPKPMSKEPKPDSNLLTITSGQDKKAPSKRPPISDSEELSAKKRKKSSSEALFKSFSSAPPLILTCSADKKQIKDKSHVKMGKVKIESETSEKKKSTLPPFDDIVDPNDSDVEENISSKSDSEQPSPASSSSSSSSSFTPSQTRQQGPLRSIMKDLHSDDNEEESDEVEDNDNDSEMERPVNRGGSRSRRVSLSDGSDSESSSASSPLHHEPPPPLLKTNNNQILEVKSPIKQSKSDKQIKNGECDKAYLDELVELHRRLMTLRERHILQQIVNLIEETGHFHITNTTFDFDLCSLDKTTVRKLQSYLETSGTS
# Calb FLC – affects C. albicans growth with fluconazole | C. albicans CaCi-2 (fluconazole-resistant clinical isolate) + fluconazole, Alamar Blue growth, 48 h | growth inhibition, % (no concentration beside the values) | 300,000 compounds, 0.57% hits;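 active = most replicates above 75%; inconclusive = exactly half above 75%; inactive = most below 75%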;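 note: all wells also contain fluconazole at 8 µg/ml as a sub-toxic cotreatment; 0% = median of DMSO wells and 100% = median of geldanamycin control wells; wells of about 8 µL received 7.5 nL stock; the first replicate is given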
# T cruzi inh – blocks replication of Trypanosoma cruzi; 300,000 compounds, 1.4% hits; inhibition, % (concentration not given with the values); AID 1885; T. cruzi beta-gal in NIH3T3, luminescence, 90 h;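 active = mean inhibition across valid replicates above about 55%, limit read from the data; inconclusive = mean below that limit but half or more replicates reach it; inactive = mean below it, under half of replicates reach it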;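 note: signal also drops with host cell toxicity which is not excluded here; 0% = plate median of DMSO wells and 100% = zero luminescence signal; higher percent means less beta-gal luminescence so fewer parasites; stock transfer was 50 nL into about 50 µL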
# Vif TR-FRET – HIV-1 Vif–A3G interaction blockers – biochemical, TR-FRET, GST-Vif 1-94, biotin-A3G peptide, dose response retest, primary screen (AID 1117319); 260,000 compounds, 0.57% hits; inhibition, %; hits with a dose series show IC50 in µM; TR-FRET GST-Vif / biotin-A3G peptide binding; higher % means a stronger effect; test concentration not given here; strong numbers were not always called active;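 active = above the screen mean plus three standard deviations and confirmed in dose response; inconclusive = results disagree or hit not tested in dose response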;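 note: Vif residues 1-94 fused to GST binding biotinylated APOBEC3G peptide 110-148; 0% = full assay without inhibitor and 100% = GST in place of GST-Vif; retest series ran down from 100 µM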
# Bfl-1 A1 inh – inhibitors of the anti-apoptotic protein A1, read as caspase activation | 330,000 compounds, 0.066% hits | caspase activation, % (concentration not given with the values) | AID 2462 | MEF A1-2A-BIM cells, Caspase-Glo 3/7 luminescence, 3 h; percent of clofoctol response, vehicle zero;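 active = over half of replicate activation scores above 10%, or exactly half above 10 with the replicate mean above 10; inconclusive = replicate mean below 10 yet half the replicates above 10; inactive = over half of replicates below 10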;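 note: wells of about 30 µL received 50 nL stock; many hits fall short of the cut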
# rRNA inh HTS OD600 – further read-out of rRNA inh HTS, marked with its call; OD600 change, %; measured here: OD600 growth;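 optical density of the mix in the first replicate; 0 = DMSO median and -100 = no signal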
# rRNA inh HTS RFP – second read-out of rRNA inh HTS, no call of its own (marks repeat the call); RFP signal change, %; measured here: RFP humanized mutant strains;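 first replicate; 0 = DMSO median and -100 = no signal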
# An asterisk follows results filed as active; u = inconclusive; x = not tested or not shown. These rows are one share of the data; rates above refer to the full screens.
Molecule	RanGTP-Imp inh	Calb FLC	rRNA inh HTS RFP	Beta cell apopt	AF4-AF9 inh	Bfl-1 A1 inh	Vif TR-FRET	T cruzi inh	rRNA inh HTS	rRNA inh HTS OD600
Cc1ccc(C2=C/C(=C/c3cccs3)C(=O)O2)cc1	-3.1	0.7	x	-2.5	x	0.0	x	6.6	x	x
Cn1cnnc1SCC(=O)Nc1cc(S(=O)(=O)N2CCCCCC2)ccc1Cl	-2.9	-4.7	x	-4.0	x	-0.9	u	-1.2	x	x
O=[N+]([O-])c1cccc(-c2n[nH]c(=S)n2Cc2ccccc2)c1	u	3.9	x	-0.8	x	-0.2	-0.1%	3.9	x	x
COCCN(C(=O)COC(=O)Cc1cccc(OC)c1)c1c(N)n(Cc2ccccc2)c(=O)[nH]c1=O	-1.3	8.5	1.8	-5.4	-7.8	-0.1	x	-7.5	8.5	10.8
CC(=O)c1ccc(N=C2NC(=O)C(CO)(CO)S2)cc1	u	-0.7	1.4	-1.6	0.7	-0.3	-3.4%	-2.1	15.8	7.9
CC(=O)Oc1ccc(C(=O)O)cc1OC(C)=O	2.4	-2.5	-0.8	0.6	-3.4	-0.5	11.8%	-2.6	10.4	12.3
COc1ccc(NC(=O)NCCCN2CCN(c3ccccc3F)CC2)cc1	4.3	-16.5	-19.6	-11.0	6.0	1.1	12.1%	-10.4	-14.8	-34.0
CCOc1ccc(C(=O)OCC(=O)NC(C)C)cc1	6.5	-10.8	0.0	-1.2	-3.1	0.5	-10.2%	-14.0	11.2	7.8
Cc1nc(-c2ccccc2Cl)sc1C(=O)/C=C/N(C)C	3.1	26.3	2.0	1.0	1.2	-1.2	9.7%	x	0.9	-4.2
Clc1ccc(C2CC(c3ccccc3)Nc3ncnn32)cc1 (stereo unspecified)	-3.9	-5.4	-0.6	-3.0	-1.2	0.3	3.9%	7.8	-7.6	-19.5
CC(=O)c1cccc(NC(=O)c2ccncc2)c1	3.2	14.1	x	-2.9	x	-0.5	-5.6%	x	x	x
Cc1cc(/C=N/NC(N)=S)c(C)n1-c1ccc(Br)cc1	-2.7	-23.0	-6.2	-2.9	6.4	-0.5	x	36.7	4.0	14.2
Brc1ccc(C2=CC(c3ccco3)n3nnnc3N2)cc1 (stereo unspecified)	-1.1	-2.0	6.9	x	2.3	0.1	x	-19.6	7.2	1.7
CC(C)CN(C(=O)COC(=O)CCC(=O)c1ccc(F)cc1)c1c(N)n(Cc2ccccc2)c(=O)[nH]c1=O	0.9	1.8	0.2	2.8	-13.5	-0.3	2.0%	0.0	-1.2	12.1
CCOC(=O)c1cc(C)[nH]c(=S)c1C#N	7.9	9.2	x	-7.0	x	0.6	3.8%	-10.5	x	x
COc1cc(C(=O)Nc2ccc3c(c2)C(=O)c2ccccc2C3=O)cc(OC)c1OC	4.2	10.3	x	-1.6	x	0.0	x	7.8	x	x

# Continued; it opens with the seven that closed the last part.
Molecule	RanGTP-Imp inh	Calb FLC	rRNA inh HTS RFP	Beta cell apopt	AF4-AF9 inh	Bfl-1 A1 inh	Vif TR-FRET	T cruzi inh	rRNA inh HTS	rRNA inh HTS OD600
Clc1ccc(C2CC(c3ccccc3)Nc3ncnn32)cc1 (stereo unspecified)	-3.9	-5.4	-0.6	-3.0	-1.2	0.3	3.9%	7.8	-7.6	-19.5
CC(=O)c1cccc(NC(=O)c2ccncc2)c1	3.2	14.1	x	-2.9	x	-0.5	-5.6%	x	x	x
Cc1cc(/C=N/NC(N)=S)c(C)n1-c1ccc(Br)cc1	-2.7	-23.0	-6.2	-2.9	6.4	-0.5	x	36.7	4.0	14.2
Brc1ccc(C2=CC(c3ccco3)n3nnnc3N2)cc1 (stereo unspecified)	-1.1	-2.0	6.9	x	2.3	0.1	x	-19.6	7.2	1.7
CC(C)CN(C(=O)COC(=O)CCC(=O)c1ccc(F)cc1)c1c(N)n(Cc2ccccc2)c(=O)[nH]c1=O	0.9	1.8	0.2	2.8	-13.5	-0.3	2.0%	0.0	-1.2	12.1
CCOC(=O)c1cc(C)[nH]c(=S)c1C#N	7.9	9.2	x	-7.0	x	0.6	3.8%	-10.5	x	x
COc1cc(C(=O)Nc2ccc3c(c2)C(=O)c2ccccc2C3=O)cc(OC)c1OC	4.2	10.3	x	-1.6	x	0.0	x	7.8	x	x
Cc1cc2ccccc2n2c(SCC(=O)Nc3ccc(S(=O)(=O)N4CCCCC4)cc3)nnc12	-1.4	10.9	x	2.6	x	-0.3	-2.7%	14.5	x	x
COC(=O)Cc1ccc(OCC(=O)Nc2ccc(OC(F)(F)F)cc2)cc1	-0.2	-5.4	6.3	-0.6	-1.8	0.0	4.7%	-10.4	-1.6	-2.1
c1ccc2c(c1)Cc1cc3ccccc3nc1-2	0.4	-2.5	-6.5	9.6	2.6	-7.6	-1.6%	-13.1	7.5	-57.8
CSc1nc2nc(-c3cccc(C(F)(F)F)c3)ccn2n1	-2.6	-12.9	-7.0	-0.2	-1.9	-1.0	5.2%	30.4	7.5	-26.8
CCOC(=O)C1(Cc2cccc(F)c2)CCN(Cc2c(C)nn(CC)c2C)CC1	-1.4	-22.2	1.5	1.1	1.9	0.7	-7.9%	17.5	8.4	8.8
Cc1ccc(Cl)c(NC(=O)CCl)c1Cl	0.4	-4.8	2.5	6.9	-2.0	1.0	x	13.7	3.0	12.6
COC(=O)CC(c1ccc(OC)c(OC)c1)c1ccc(OC)c(OC)c1	3.5	-8.0	-0.2	-2.5	-7.4	0.2	x	-13.7	0.6	0.4
CCC(C)(C)NC(=O)C(c1cccn1C)N(C(=O)Cn1nnc2ccccc21)c1ccc(OC)cc1OC (stereo unspecified)	0.1	25.6	x	1.3	x	-0.4	2.1%	22.3	x	x
CCN(CC)c1ccc(S(=O)(=O)N2CCOCC2)cc1NC(=O)Nc1ccccc1	x	x	0.8	22.5	-0.3	-0.6	-42.0%	x	10.5	13.4
Cc1cccc(C(=O)Oc2ccc(/C=N/NC(=O)c3ccccc3O)cc2)c1	1.9	25.7	-8.2	-5.3	-1.6	-1.6	2.6%	-8.5	5.9	-1.6
